Bioassay records: PubChem BioAssay, several laboratories
ugtP null kill = growth inhibition of S. aureus ugtP deletion strain; S. aureus RN4220 ugtP deletion, OD600 growth, 16 h; some inactives read as strong as hits; growth inhibition, % (no concentration beside the values); actives 0.54% (n = 330,000); AID 1259309;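 active means z-score under -3 and OD600 up to 0.15 on both plates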;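 further: plate controls were untreated wells for no effect and antibiotic for full effect; wells of about 80 µL received 100 nL stock; the first replicate is given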
BJeLR viability = BJeLR cell viability loss; BJeLR (HRASV12) viability, CellTiter-Glo ATP luminescence, 48 h; reference of the scale not given here; inhibition, % (concentration not given with the values); actives 0.17% (n = 300,000);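 active means replicate mean above 50%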;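 further: 50 nL library stock added to about 25 µL; numbers are from one replicate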
Sa RN4220 lethal = kills Staphylococcus aureus RN4220. inhibition, % (no concentration beside the values). actives 0.33% (n = 330,000). S. aureus RN4220 growth, OD600, 16 h. AID 1259311;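 active means z-score of -3 or lower and OD600 up to 0.18 on both plates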;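 further: plate controls were untreated cells for no effect and reference antibiotic for full effect; stock transfer was 100 nL into about 80 µL; one replicate is shown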
Autofluor counter = flagged as autofluorescent in microsphere protease counterscreen | compound autofluorescence counterscreen, microsphere flow cytometry; active compounds read high | fluorescence intensity (test concentration not listed) | actives 3.1% (n = 360,000);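 active means at least 3 SD above the mean of all compounds, about 16000 in these data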;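 further: 100 nL of 1 mM stock went into each well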
Mtb hypoxia rep = inhibitors of hypoxia-regulated fluorescent reporter in Mycobacterium tuberculosis; AID 1159583; fluorescence inhibition, % (no concentration beside the values); M. tuberculosis hypoxia-regulated fluorescent reporter, fluorescence; actives 0.1% (n = 300,000);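 active means 35 to 45% if threefold the growth effect, above 45% if 1.5-fold the growth effect; inactive means the rest, general growth blockers included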;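 further: wells of about 50 µL received 100 nL stock; 0% = vehicle wells and 100% = reference inhibitor wells; whole bacteria with a GFP reporter of the hypoxia response; strong numbers were not always called active; many hits fall short of the cut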
PrP UTR inh = inhibition of PrP 5' UTR reporter expression; cell-based PrP 5' UTR mRNA reporter, plate reader; inhibition, % (no concentration beside the values); actives 0.35% (n = 340,000);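 active means every replicate at 50% or more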;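 further: 0 = median of the neutral control wells; tested in H4 reporter cells; numbers are from one replicate; inactives centre near -14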
Mtb hypoxia rep growth = further read-out of Mtb hypoxia rep, marked with its call; growth inhibition, %; measured here: M. tuberculosis growth (absorbance);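 0% = vehicle and 100% = reference antibiotic; read after six days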
An asterisk follows results filed as active; x = no result given; & = joins results of further samples. Rows are unselected (roughly 3.9% active in at least one column).

SMILES	ugtP null kill	BJeLR viability	Sa RN4220 lethal	Autofluor counter	Mtb hypoxia rep	Mtb hypoxia rep growth	PrP UTR inh
CCCCNc1c(-c2ccc(SC3CCCCC3)cc2)nc2cnccn12	-17	x	-12	3365&6223	7	4	-6
CCN1C(=O)NC(c2ccc(Br)cc2)C(C(C)=O)=C1C (stereo not drawn)	5	x	0.6	x	6	-1	x
CCOc1ccc(C(=O)NCC(c2cccs2)N2CCOCC2)cc1 (stereo not drawn)	0	x	3.8	3642	8	4	-25
CC(CSc1nnnn1-c1ccccc1)Cn1c(N2CCCC2)nc2c1c(=O)[nH]c(=O)n2C (stereo not drawn)	-2	1	5.1	2519	3	4	8
CSC1=NCCN1S(=O)(=O)c1ccccc1	5	-5	1.3	2148	0	-12	-12
CC(C)NC(=O)c1ccc(N(Cc2ccc(Cl)cc2)S(C)(=O)=O)cc1	10	-1	2.6	3788	10	19	-20
CC(=O)N(Cc1ccccc1)c1ncc2c(n1)c(=O)c(C#N)c1ccccn12	4	1	0.6	4955	1	-2	0
Cc1ccc(/C=N/NC(=O)c2ccccn2)s1	x	8	x	2378	x	x	-46
CC(=O)Nc1ccc(S(=O)(=O)Oc2ccc(/C=N/NC(=O)c3ccc(Cl)cc3)cc2)cc1	x	4	x	3530	x	x	-22
CC(CC(=O)N(CCC1=CCCCC1)c1c(N)n(Cc2ccccc2)c(=O)[nH]c1=O)c1ccccc1 (stereo not drawn)	2	1	0.0	7068	0	0	-5
CC(C)(C)NC(=O)CN(C(=O)C1CSC(=O)C1)c1ccc2c(c1)OCCO2 (stereo not drawn)	0	1	2.6	13433	0	5	-18
CCN(CC)CCSc1nc2ccccc2n1Cc1ccccc1	9	4	-4.5	3797	11	18	-14
O=C(Nc1cc(Cl)ccc1N1CCOCC1)c1cnccn1	-3	-4	-0.2	3560	1	5	-16
Cn1c(SCC(=O)Nc2cc(C(C)(C)C)nn2-c2ccccc2)nc2ccccc21	0	9	-5.5	2456	-2	-2	-23
CC(Oc1cc2oc(=O)c3c(c2cc1Cl)CCC3)C(=O)NCc1ccccn1 (stereo not drawn)	1	0	6.2	5714	-1	9	-6
S=c1[nH]nc(-c2ccc(Cl)cc2)n1Cc1ccccc1	2	1	2.7	13046	9	7	-12
O=C(O)C1CSC(c2ccc3c(c2)OCO3)N1 (stereo not drawn)	6	6	2.9	6354	13	8	-15
Cc1ccc(-c2cn(-c3ccccc3)c(SCC(N)=O)n2)cc1C	-3	-7	1.1	8548	1	5	-41
CC(SC(C)C(=O)NN=Cc1cccc(F)c1)C(=O)NN=Cc1cccc(F)c1 (stereo not drawn)	-3	x	2.4	3416	21	11	-19
Cc1ccc2nc(N3CCN(C(=O)CCCC(=O)O)CC3)nc(-c3ccccc3)c2c1	6	0	2.6	3594	-14	-1	3
CN(C)c1cccc(C(=O)N/N=C/c2ccsc2)c1	x	12	x	2478	x	x	-64
O=C(NC1CCCC1)C1CCCN1S(=O)(=O)c1cccc2cccnc12 (stereo not drawn)	10	-3	1.5	5349	x	x	-13
COc1ccc(C(=O)COC(=O)C2COc3ccccc3O2)cc1F (stereo not drawn)	9	x	4.6	x	5	0	-10
CN(C)c1ccc2nc3c(=O)[nH]c(=O)nc-3n(CC(O)C(O)C(O)CO)c2c1 (stereo not drawn)	5	6	1.8	3631	x	x	-15
CCOC(=O)NC(=O)C(C#N)=CNc1sccc1C(=O)OC	0	x	4.2	x	5	13	x
CN(C)S(=O)(=O)N1CCC(CO)(CCc2ccccc2)CC1	4	5	6.1	4025	15	2	-7
Nc1c(C(=O)OCC2CCCO2)c2nc3ccccc3nc2n1C1CCCCC1 (stereo not drawn)	-30	-9	2.8	9705	1	3	-7
CCN(CC)c1ccc(S(=O)(=O)Nc2cc(Cl)ccc2Cl)cc1NC(=S)NC(=O)C1CCCC1	-10	-10	11	2513	0	3	-18
CC(=O)c1ccc(NC(=O)C2C3C=CC(O3)C2C(=O)O)cc1 (stereo not drawn)	11	4	1.3	3556	5	-9	-9
O=c1c2ccccc2c(/C=N/c2nnc(Cc3ccccc3)s2)c(O)n1-c1ccc(Cl)cn1	x	-1	x	2080	x	x	-3
CC(C)c1ccc(COc2ccc(C(=O)N3CCOCC3)cc2)cc1	0	-4	7.0	3791	-8	16	-33
CCOc1ccc(N(C)S(=O)(=O)c2ccc(C)c(C(=O)NCc3ccccc3OC)c2)cc1	4	x	-3.2	4013	2	5	-10
Cc1nc(N2CCc3ccccc3C2)[nH]c(=O)c1CCC(C)C	13	-3	5.3	7895	3	0	-39
COCC(C)N=C1NN=C(c2c[nH]c3ccccc23)CS1 (stereo not drawn)	11	1	-1.6	2029	-1	1	-30
CCOC(=O)C1=C(C)NC(=O)NC1c1ccc(OCCO)c(OC)c1 (stereo not drawn)	7	4	14	3034	4	-12	-4
CCOC(=O)c1c(NC(=O)CCN2C(=O)c3cccc([N+](=O)[O-])c3C2=O)sc(C(=O)OC(C)C)c1C	1	3	2.3	2110	7	7	-11
COC(=O)c1ccc(NC(=O)NS(=O)(=O)c2ccc(C)cc2)cc1	2	-21	1.7	8093	6	8	-34
CCN(CC)c1ccc2cc(S(=O)(=O)c3ccc(C)cc3)c(=O)oc2c1	-3	-1	2.7	2271	9	7	-45
CCC(=O)N1CCN(c2ccc(NC(=S)NC(=O)COc3ccccc3)cc2)CC1	13	11	3.1	5475	x	x	-25
CC(C)(C)n1nnnc1C(c1ccc(F)cc1)N(Cc1ccc(F)cc1)Cc1ccco1 (stereo not drawn)	2	-2	0.6	3925	14	-1	-3

13 entries from above, in markdown:
| Compound | ugtP null kill | BJeLR viability | Sa RN4220 lethal | Autofluor counter | Mtb hypoxia rep | Mtb hypoxia rep growth | PrP UTR inh |
| --- | --- | --- | --- | --- | --- | --- | --- |
| CN(C)c1cccc(C(=O)N/N=C/c2ccsc2)c1 | x | 12 | x | 2478 | x | x | -64 |
| O=C(NC1CCCC1)C1CCCN1S(=O)(=O)c1cccc2cccnc12 (stereo not drawn) | 10 | -3 | 1.5 | 5349 | x | x | -13 |
| COc1ccc(C(=O)COC(=O)C2COc3ccccc3O2)cc1F (stereo not drawn) | 9 | x | 4.6 | x | 5 | 0 | -10 |
| CN(C)c1ccc2nc3c(=O)[nH]c(=O)nc-3n(CC(O)C(O)C(O)CO)c2c1 (stereo not drawn) | 5 | 6 | 1.8 | 3631 | x | x | -15 |
| CCOC(=O)NC(=O)C(C#N)=CNc1sccc1C(=O)OC | 0 | x | 4.2 | x | 5 | 13 | x |
| CN(C)S(=O)(=O)N1CCC(CO)(CCc2ccccc2)CC1 | 4 | 5 | 6.1 | 4025 | 15 | 2 | -7 |
| Nc1c(C(=O)OCC2CCCO2)c2nc3ccccc3nc2n1C1CCCCC1 (stereo not drawn) | -30 | -9 | 2.8 | 9705 | 1 | 3 | -7 |
| CCN(CC)c1ccc(S(=O)(=O)Nc2cc(Cl)ccc2Cl)cc1NC(=S)NC(=O)C1CCCC1 | -10 | -10 | 11 | 2513 | 0 | 3 | -18 |
| CC(=O)c1ccc(NC(=O)C2C3C=CC(O3)C2C(=O)O)cc1 (stereo not drawn) | 11 | 4 | 1.3 | 3556 | 5 | -9 | -9 |
| O=c1c2ccccc2c(/C=N/c2nnc(Cc3ccccc3)s2)c(O)n1-c1ccc(Cl)cn1 | x | -1 | x | 2080 | x | x | -3 |
| CC(C)c1ccc(COc2ccc(C(=O)N3CCOCC3)cc2)cc1 | 0 | -4 | 7.0 | 3791 | -8 | 16 | -33 |
| CCOc1ccc(N(C)S(=O)(=O)c2ccc(C)c(C(=O)NCc3ccccc3OC)c2)cc1 | 4 | x | -3.2 | 4013 | 2 | 5 | -10 |
| Cc1nc(N2CCc3ccccc3C2)[nH]c(=O)c1CCC(C)C | 13 | -3 | 5.3 | 7895 | 3 | 0 | -39 |

Next entries.
SMILES	ugtP null kill	BJeLR viability	Sa RN4220 lethal	Autofluor counter	Mtb hypoxia rep	Mtb hypoxia rep growth	PrP UTR inh
CC1CCC(C(C)C)C(OCC(O)C[N+]2(C)CCCCC2)C1 (stereo not drawn)	10	0	3.0	3202	10	13	-19
Cc1[nH]c2ccccc2c1C(=O)CSc1n[nH]c(N)n1	2	-3	1.9	4265	10	4	10
COCCN(CC(=O)Nc1ccccc1)S(=O)(=O)c1ccc(S(=O)(=O)N2CCCC2)cc1	0	6	4.7	4755	x	x	-25
O=C(O)CCc1c(C(=O)O)[nH]c2ccccc12	-4	-2	2.0	3234	-5	-4	-2
O=c1c2c3nc4ccccc4nc3n(-c3ccc4c(c3)OCCO4)c2ncn1C1CCCC1	-8	x	2.9	3611	x	x	-14
COc1ccc(C(=O)N/C(=C\c2cn(S(=O)(=O)N(C)C)c3ccccc23)C(=O)NCCCN2CCOCC2)cc1	3	-6	3.5	5333	2	2	-6
CN(C(=O)c1cc2c(s1)-c1ccccc1S(=O)(=O)C2)c1ccccc1	-6	0	1.8	3493	-1	15	-8
OCCNc1nc(Nc2ccccc2)nc2ccccc12	-8	1	-9.4	2466	-6	-11	-24
CC(N)=C(C#N)C(=O)COC(=O)c1cc(-c2cccc3ccccc23)nc2ccccc12	-16	x	-1.8	x	5	6	x
COc1cccc(-c2nnc(NC(=O)c3ccccc3Br)o2)c1	11	-2	9.0	5816	5	3	-16
COc1cccc(CN2CCN(Cc3cc(OC)c(OC)cc3[N+](=O)[O-])CC2)c1	1	-20	1.7	16274*	1	7	-16
O=C(Nc1ccnn1C1CCN(CCCC2CCCC2)CC1)c1ccccc1Cl	3	4	1.1	6624	7	15	-16
CCOC(=O)CSc1ccc(S(=O)(=O)N2CCCC2)cc1[N+](=O)[O-]	2	0	6.5	4992	5	5	-23
O=P1(c2ccccc2)Nc2ccccc2N1c1ccccc1 (stereo not drawn)	-14	x	20	3084	x	x	-22
Nc1nc(SCC(=O)NCCOCCO)nc2sc3c(c12)CCCC3	-1	2	-0.2	4363	-1	0	-29
c1ccc(-c2nnnn2CCOCCn2nnnc2-c2ccccc2)cc1	-6	-8	5.5	9896	-1	-15	-19
COc1ccc(C(=O)CN2CCCCC2)cc1	6	x	1.4	4106	1	8	-39
O=C(NCc1ccc(N2CCCC2=O)cc1)c1cn(CCc2ccccc2)nn1	-2	5	-0.6	3328	x	x	-4
COc1ccc(C2/C(=C(\O)c3cc(C)ccc3C)C(=O)C(=O)N2CCN(C)C)cc1OC (stereo not drawn)	4	2	1.3	4507	3	8	0
C=CCn1c(SC)nnc1-c1cccc([N+](=O)[O-])c1	1	3	-4.7	2077	1	13	-11
O=C(OCC(=O)N1CCCCC1)c1ccccc1SCC(=O)N1CCCCC1	5	-1	13	3962	17	12	-21
O=c1[nH]c(CSc2nnc(Cc3ccccc3)o2)nc2ccccc12	-1	-1	2.8	4443	-2	5	-5
COc1ccc(/C(C)=N/N=C2/NC(=O)CC(C(=O)O)S2)cc1 (stereo not drawn)	x	-8	x	1901	x	x	-95
CN(CCCNC(=O)CN1C(=O)CC(C)(C)S(=O)(=O)c2ccccc21)C1CCCCC1	-1	0	2.2	9455	-6	2	-24
CCC(CC)c1ncc[nH]1	8	6	4.1	3620	3	-4	-32
Cn1ccnc1SCC(=O)Nc1ccc2nc(SCC(=O)NC3CC3)sc2c1	2	3	0.6	x	x	x	x
CN1CCC(=NNC(=O)C(=O)NC2CCCC2)CC1	-6	1	-12	3595	19	5	-6
Cc1nnc(SCC(=O)N(C)C2CCCCC2)s1	3	11	-1.0	4276	12	2	-36
COc1ccc(N2CCN(C(=O)Cn3nnc(-c4cccs4)n3)CC2)cc1	1	-5	3.4	12762	8	15	-19
CCN1CCc2c(sc(NC(=O)C3COc4ccccc4O3)c2C(N)=O)C1 (stereo not drawn)	5	2	3.8	5793	13	10	-10
CCN(CC)c1ccc(NC(=O)c2ccc(S(=O)(=O)N3CCOCC3)cc2)cc1	4	x	2.5	3982	4	4	-9
Cc1[nH]c(=O)c(C#N)cc1-c1csc(-c2ccccc2)n1	-7	2	2.1	3653	-3	-5	14
CCC(C(=O)NCCCN(CC)Cc1ccccc1)n1nc(C)c2sc3ccccc3c2c1=O (stereo not drawn)	3	-12	0.0	4776	6	-1	-10
COc1ccc(C(=O)c2cnc(/N=C/N(C)C)s2)cc1	x	8	x	4215	x	x	-13
